A647 fluor = qHTS Assay for Spectroscopic Profiling in A647 Spectral Region | max dye-equivalent concentration, M | 59,000 tested, under 10 active | Compound fluorescence, A647 channel (570/671 nm), Tris buffer | AID 592, 2007; active means above 1 µM dye equivalent; inconclusive means 0.1 to 1 µM; inactive means 0.1 µM or less;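 further: values scaled relative to a standard on each plate; highest value over a series up to 38 µM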
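Each compound's intrinsic fluorescence at 570 nm excitation and 671 nm emission is measured across its concentration series in 100 mM Tris, pH 8.0, after 15 min at room temperature, and reported relative to an A647 curve.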
A488 fluor = qHTS Assay for Spectroscopic Profiling in A488 Spectral Region; compound autofluorescence, A488 spectral region, dye equivalency; stronger effect = higher value; max dye equivalency, M; 59,000 tested, 0.1% active; active = above 10 nM dye equivalent; inconclusive = 1 to 10 nM; inactive = 1 nM or less; about half of its hits are not listed in these tables;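 further: highest value over a series up to 38 µM; compound alone in buffer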
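Spectroscopic profiling in the A488 region: compounds in pH 8.0 Tris (100 mM), 15 min RT, CCD imaging with 480 nm excitation and 540 nm emission; responses normalized against A488 dye standards.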
Resorufin fluor = qHTS Assay for Spectroscopic Profiling in Resorufin Spectral Region; Compound fluorescence, resorufin region 547/598 nm, buffer; stronger effect = higher value; max dye-equivalent concentration, M; 59,000 tested, 0.04% active; active = above 10 nM dye equivalent; inconclusive = 1 to 10 nM; inactive = 1 nM or less; a few of its hits are not listed in these tables; further: highest value over a series up to 38 µM
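Tris 100 mM pH 8.0; compound added, 15 min RT; CCD imager read, ex 547 nm/em 598 nm; signal normalized to resorufin standard curve (six concentrations per plate) as dye-equivalent concentration.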
TSHR agonist = qHTS Assay for Agonists of the Thyroid Stimulating Hormone Receptor; Thyrotropin receptor (Homo sapiens), P16473; HEK293-CNG-TSHR cells (CNG channel as cAMP sensor), membrane potential dye, cAMP; AID 926, 2007; 73,000 tested, 0.48% active; Potency, µM (titrated, usually from 57.1 µM), without a hit: top-dose activation, usual class: activators; active = well fitted activation curve of enough size with the parental cells flat; inconclusive = any curve in the parental cells; inactive = parental cells flat and receptor cells flat or falling; further: potency means the concentration at half of the fitted maximal effect; % of control where 0% means no effect; weak receptor curves with flat parental cells got no call and are not listed
Target sequence (P16473 whole entry, looked up): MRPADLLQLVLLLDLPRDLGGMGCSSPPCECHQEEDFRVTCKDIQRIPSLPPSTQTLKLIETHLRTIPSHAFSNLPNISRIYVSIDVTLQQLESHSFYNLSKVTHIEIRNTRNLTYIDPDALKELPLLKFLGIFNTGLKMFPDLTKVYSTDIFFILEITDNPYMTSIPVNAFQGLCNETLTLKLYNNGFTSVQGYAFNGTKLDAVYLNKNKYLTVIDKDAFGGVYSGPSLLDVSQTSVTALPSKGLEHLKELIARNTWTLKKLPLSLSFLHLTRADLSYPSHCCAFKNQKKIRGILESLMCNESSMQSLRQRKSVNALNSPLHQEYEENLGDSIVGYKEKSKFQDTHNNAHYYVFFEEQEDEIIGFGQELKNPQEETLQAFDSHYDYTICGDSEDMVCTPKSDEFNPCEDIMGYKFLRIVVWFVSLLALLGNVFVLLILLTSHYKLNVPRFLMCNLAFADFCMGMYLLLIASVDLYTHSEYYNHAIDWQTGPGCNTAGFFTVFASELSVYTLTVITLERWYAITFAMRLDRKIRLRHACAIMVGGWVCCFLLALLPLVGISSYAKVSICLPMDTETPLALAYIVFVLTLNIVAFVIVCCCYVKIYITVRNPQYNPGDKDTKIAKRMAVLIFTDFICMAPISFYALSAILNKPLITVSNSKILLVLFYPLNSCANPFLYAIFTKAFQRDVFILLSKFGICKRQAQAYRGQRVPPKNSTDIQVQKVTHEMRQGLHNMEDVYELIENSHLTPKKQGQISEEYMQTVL
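cAMP rise detected as CNG-channel membrane depolarization by fluorescent dye (emission 590 nm), 30 min after compound, following 60 min dye loading containing 100 uM RO 20-1724 at room temperature. Cells: TSHR/CNG HEK 293, with parental CNG HEK 293 as control.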
AID923 = qHTS Assay for Allosteric/Competitive Inhibitors of Caspase-1: Spectroscopic Profiling in AFC Spectral Region. compound fluorescence, AFC spectral region (405/520 nm); almost no hit is shown here. Potency, µM (doses to about 57.5 µM), for the others: at the highest dose fluorescence increase, hits mostly activators. 75,000 tested, 1.1% active; active means well fitted activation curve with a large enough effect; inconclusive means small, poorly fitted or top-dose-only effect;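 further: potency means the concentration at half of the fitted maximal effect; 0% is about no effect; scaled to a free AFC standard on each plate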
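Compound autofluorescence profiled at 405 nm ex/520 nm em during kinetic caspase 1 run (50 nM enzyme, 5 uM Ac-WEHD-AFC, HEPES pH 7.5, 10 mM DTT). Titration up to 57 uM; baseline from regression intercept, normalized to AFC standard curve.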
* = called active by the depositor; i = inactive; ? = inconclusive; / = no result given; & = joins results of further samples; [ ] = dose if it differs, or a comment.

canonical_smiles	A647 fluor	A488 fluor	Resorufin fluor	TSHR agonist	AID923
Cc1c(C(=O)NC(C)CN2CCCCC2)oc2ccccc12 (centres undefined)	1.53e-08	i	i	3.0%	-2.0%
COC(=O)c1c(C)[nH]c(C)c1-c1ccccc1	1.6e-09	i	i	-5.4%	3.1%
CCOc1cc(NC(=O)C2CC2)c(OCC)cc1NC(=O)c1ccccn1	8e-09	i	i	-6.3%	1.1%
CCOC(=O)c1[nH]c2cc(OC)c(OC)cc2c1NC(=O)c1nonc1C	/	/	/	11.3%	5.1%
CCOc1ccc2[nH]c(C)cc(=O)c2c1	/	/	/	?	1.5%
COc1ccc(-c2nnc(SCC(=O)c3[nH]c(C)c(C(C)=O)c3C)o2)cc1	2.74e-08	i	i	/	0.0%
COCCn1nnnc1C(c1ccc(OC)cc1OC)N1CCN(c2ccccc2F)CC1 (centres undefined)	5.36e-08	i	i	?	-0.8%
Cn1c(=O)c2c(nc(SC3C(=O)CC(C)(C)CC3=O)n2C)n(C)c1=O	1.7e-09	i	i	2.0%	0.6%
CCCCOCCCNC(=O)N[C@H](C(=O)OC)C(C)C	1e-09	i	i	-1.4%	0.6%
COc1ccc(OC)c(NC(=O)C2CCC(CNc3c(N4CCC(C)CC4)c(=O)c3=O)CC2)c1 (centres undefined)	/	/	/	-3.4%	1.9%
O=C(Nc1cccc(F)c1)N1CCC2(CC1)CCN(C(=O)c1cnccn1)CC2	1.2e-09	i	i	-1.6%	2.2%
Cc1noc(C)c1S(=O)(=O)N1CCC(C(=O)NCCC2=CCCCC2)CC1	3.7e-09	i	i	/	-2.4%
CCCSc1nc2c(c(=O)[nH]c(=O)n2C)n1C	1e-09	i	i	5.8%	-0.7%
CCc1nnc(SCC(=O)N2CCCc3ccccc32)nc1CC	2.26e-08	i	i	17.5%	0.7%
COc1ccccc1-c1cncnc1N1CCN(C)CC1	2.4e-09	i	i	1.2%	0.6%
c1coc(Cn2nnnc2CN2CCN(C3CCCCC3)CC2)c1	2.2e-09	i	i	0.4%	2.1%
CCCCN(CC)S(=O)(=O)c1ccc(C(=O)Nc2nnc(-c3ccccc3Cl)o2)cc1	2.74e-08	i	i	?	0.9%
Cc1[nH]nc2c1C(Cc1ccccc1)C(C#N)=C(N)O2 (centres undefined)	2.3e-08	i	i	3.9%	-0.1%
CCOc1ccc(CN2CCC(=O)NC2=O)cc1	/	/	/	1.6%[11.4 µM]	-1.4%
O=C(N/N=C1/C[C@@H](O)[C@@H](O)[C@@H]2[C@@H]3C(=O)N(c4cccc(Oc5ccccc5)c4)C(=O)[C@H]3CC[C@H]12)OCc1ccccc1	/	/	/	1.3%[11.4 µM]	1.0%[11.5 µM]
Cn1c2c(c(=O)n(C)c1=O)CN(CC1CCCO1)CN2 (centres undefined)	5.9e-09	i	i	11.7%	2.0%
NC(=O)c1cc[n+](CC2=C(C(=O)O)N3C(=O)[C@@H](NC(=O)[C@H](c4ccccc4)S(=O)(=O)[O-])[C@@H]3SC2)cc1	2.2e-09&3.66e-08	i	i	4.5%[25.6 µM]	1.1%[25.7 µM]
COCCNC(=O)CN(c1cc(C(F)(F)F)ccc1Cl)S(C)(=O)=O	/	/	/	-2.8%	1.5%
Cc1cc(Cl)c(S(N)(=O)=O)cc1OCC(N)=O	1.1e-09	i	i	5.9%	0.7%
O=C(NC1CCCC1)C(NS(=O)(=O)c1cccc2nsnc12)c1ccccc1 (centres undefined)	1.86e-08	i	i	4.0%	0.3%
COc1cc(C(=O)OCC(=O)Nc2c(F)c(F)c(F)c(F)c2F)cc(OC)c1OC	4e-09	i	i	?	-1.5%
CC(=O)c1c(C)[nH]c(C(=O)NCc2cccs2)c1C	1e-09	i	i	2.6%	-0.7%
COc1ccc(N2Cc3cccc(C(=O)N4CCOCC4)c3C2=O)cc1	1.45e-08	i	i	-1.3%	0.7%
Cc1c(Br)c(C(F)(F)F)nn1CC(=O)NCCN1CCOCC1	/	/	/	6.4%	-0.5%
O=C(c1ccccc1)N1CCN(C(=O)C23CC4CC(CC(C4)C2)C3)CC1	9.8e-09	i	i	/	-1.6%
Cc1onc(-c2c(F)cccc2Cl)c1C(=O)NCCc1ccc(S(N)(=O)=O)cc1	2.2e-09	i	i	0.2%	0.2%
CC(C)n1c(=S)[nH]c2c1c(=O)[nH]c(=O)n2C	1e-09	i	i	-3.1%	0.6%
Cc1cc(C)cc(N(CC(=O)N2CCn3c2nc2ccccc23)S(=O)(=O)c2c(C)noc2C)c1	/	/	/	6.2%	2.2%
CCCCNC(=O)CSc1nnc(NC(C)=O)s1	/	/	/	0.7%	-0.2%
C=CCSc1[nH]c(=O)cc(C)c1C(N)=O	1e-09	i	i	-3.5%	4.9%
Cc1csc2ncc(C(=O)Nc3cccc(C(F)(F)F)c3)c(=O)n12	/	/	/	2.6%	-3.0%
Cc1ccc(S(=O)(=O)N(C)CC(=O)N2CCCc3ccccc32)cc1	1e-09	i	i	4.9%	0.5%
N#Cc1cccc(NC(=O)N2CC3(CCN(C(=O)c4cccc(F)c4)CC3)C2)c1	2.5e-08	i	i	-0.9%	-1.1%
COC(=O)C1=C(C)NC(=O)C1(Nc1ccc(Cl)cn1)C(F)(F)F (centres undefined)	3.7e-08	i	i	?	0.5%
O=C(c1cnn2c(C(F)F)cc(C3CC3)nc12)N1CCOCC1	2.65e-08	i	i	3.5%	3.2%
COc1nc(Nc2nc3ccccc3c(=O)[nH]2)nc2ccc(C)cc12	/	/	/	3.0%[11.4 µM]	0.0%
COc1cc(C(C)=O)ccc1OC(=O)C(C)N1C(=O)c2ccccc2C1=O (centres undefined)	/	/	/	11.6%	0.2%
CC1CC(=O)N(CC(=O)N2CCCC2)c2ccccc2S1 (centres undefined)	/	/	/	3.6%	0.3%
COc1cc(C2C(C#N)=C(N)OC3=C2C(=O)CC(C)(C)C3)ccc1OC(=O)N1CCOCC1 (centres undefined)	1e-09	i	i	3.2%	0.9%
CCOC(=O)N1CCN(C(=O)CN(c2ccccc2OC)S(=O)(=O)c2ccc(C)cc2)CC1	/	/	/	7.0%	-1.0%
CN1CCN(c2ncc3ncc(=O)n(C4CC4)c3n2)CC1	1e-09	i	i	-5.5%	19.6%
N#Cc1nc(-c2cccs2)oc1NCc1ccc(Cl)cc1	/	/	/	6.2%	0.9%
COCCNC(=O)CSc1nc2ccccc2c2nc(C)nn12	7.9e-09	i	i	8.3%	0.5%
Cc1c(C(=O)NCc2cccnc2)sc2nc(-c3ccc(F)cc3)cn12	/	/	/	8.1%	2.5%
CCCCCCC#Cc1cc(OC)c(OC)cc1C(N1CC(C)c2ccccc21)N1CC(C)c2ccccc21 (centres undefined)	/	/	/	-5.2%[11.4 µM]	-1.0%[11.5 µM]
CCOc1ccc(N2C(=O)CC(NCc3ccc(F)cc3)C2=O)cc1 (centres undefined)	1.53e-08	i	i	-2.0%	0.0%
O=C(Nc1ccccc1Cl)N1CCN(c2ccccn2)CC1	/	/	/	2.5%[11.4 µM]	-1.6%
NS(=O)(=O)c1ccc(-c2ccc(C=NC3CCS(=O)(=O)C3)o2)cc1 (centres undefined)	8.09e-08	i	i	/	/
c1ccc(-c2csc(Nc3cccnc3)n2)nc1	7e-09	i	i	-6.0%	8.0%
COC(=O)N1CCN(S(=O)(=O)c2ccc(F)cc2)CC1	1.66e-08	i	i	0.6%	-1.2%
Cc1cc(N2CCOCC2)nc2ccc(Cc3ccc4nc(N5CCOCC5)cc(C)c4c3)cc12	5e-09	i	i	4.3%[11.4 µM]	-1.3%[11.5 µM]
O=C(Cn1c(=O)n(-c2ccccc2)c(=O)c2sccc21)N1CCCC1	1e-09	i	i	-1.9%	0.1%
Cn1c(=O)c2cc(S(=O)(=O)NCCC(=O)NC3CCCCCCC3)ccc2n(C)c1=O	1e-09	i	i	2.6%	-0.3%
Cn1c(=O)c(-c2cccc(Cl)c2)nc2cncnc21	2.5e-09	i	i	-21.1%	8.7%
CN1C(=O)c2ccc(N3CCCC3)cc2C1=O	1e-09	i	i	0.9%	7.2%

Other structures follow:
canonical_smiles	A647 fluor	A488 fluor	Resorufin fluor	TSHR agonist	AID923
CN(C)Cc1ccccc1-c1ccc2ncnc(NC3CCNCC3)c2c1	1e-09	i	i	/	-0.3%
CC[C@@H](C)[C@H](NC(=O)C1CCN(C(=O)[C@@H](NS(=O)(=O)c2ccc(C)cc2)C(C)C)CC1)C(=O)O	3.7e-09	i	i	-1.7%	3.2%
O=c1[nH]c(CSc2nc3ccccc3o2)nc2c1cnn2-c1ccccc1	5.58e-08	i	i	2.5%	-1.0%
CC(C)Oc1nc(-c2ccccc2O)nc2ccccc12	3.01e-08	i	i	?	-3.1%
O=S(=O)(c1ccccc1)c1nc(-c2cccs2)oc1NCCCn1ccnc1	4.6e-09	i	i	-0.3%	0.5%
CC(=O)c1c(C)nn(C(=O)N2CCOCC2)c1C	/	/	/	-3.4%	1.2%
O=c1/c(=C/c2ccccn2)sc2n1CN(c1ccccc1)CN=2	1e-09	i	i	/	/
Cc1ccccc1-n1c(=O)cc(NCc2ccc3c(c2)OCO3)[nH]c1=O	3.1e-09	i	i	0.5%	0.1%
Cn1cccc1C(=O)N1CCC2(CC1)CCN(c1ccncc1)CC2	1.97e-08	i	i	4.2%	-0.8%
COc1ccc(NC(=O)CN2CCC3(O)CCCCC3C2c2cc(OC)ccc2OC)cc1 (centres undefined)	1e-09	i	i	5.2%	1.0%
Cc1nn(-c2ccc3nnc(Br)n3n2)c(C)c1Br	3.79e-08	i	i	17.1%	-0.6%
CC1=C2[C@@H]([C@H](C)CC[C@H]2/C=C(\C)C(=O)O)[C@H](O)C1	/	/	/	-5.3%	-3.1%
CS(=O)(=O)N1CCC2(CCCN(Cc3ccccc3)C2)CC1	4.6e-09	i	i	10.2%	0.6%
CSc1cccc(NC(=O)C2CCCN(S(=O)(=O)c3cnc[nH]3)C2)c1 (centres undefined)	/	/	/	?	2.4%
Clc1ccc(C2CC(c3cccs3)n3ncnc3N2)cc1Cl (centres undefined)	/	/	/	10.9%	-1.9%
COc1cc2[nH]c(=S)n(C3CCCC3)c(=O)c2cc1OC	3.16e-08	i	i	-7.8%	-1.8%
NC(N)=N[C@H](CC(=O)O)c1ccccc1	1.1e-09	i	i	-6.2%[11.4 µM]	-3.2%[11.5 µM]
Cc1ccc(C)c(N2CCN(S(=O)(=O)c3c(C)noc3/C=C/N(C)C)CC2)c1	3.6e-09	i	i	1.3%[11.4 µM]	1.1%
O=C1O[C@H](CN2CCOCC2)CN1/N=C\c1ccc([N+](=O)[O-])o1	1.1e-09	i	i	-7.6%[25.6 µM]	1.0%[25.7 µM]
CCCCNC(=O)C(c1ccc(OCC(=O)OC)c(C(=O)OC)c1)N(CCOC)C(=O)CCCCCN1C(=O)NC(c2ccc(-c3ccccc3)cc2)C(C(=O)OCc2ccccc2)=C1C (centres undefined)	/	/	/	8.5%	0.0%
COC(=O)/C=c1/sc2n(c1=O)CCN=2	1.84e-08	i	i	0.7%	0.8%
NC(=O)C[C@H](NC(=O)Cc1ccc(O)cc1O)C(=O)O	/	/	/	-5.3%	-2.8%

Only part of the results is shown; rates above refer to the full screens.
